Compound activity as filed in PubChem BioAssay.
Bm FixLJ act: activators of Burkholderia fixLJ two-component system; B. multivorans fixK-promoter GFP reporter, 18 h; hits give high values; z-score (concentration not given with the values); hit rate 0.3% among 29,000; AID 1918990;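 active = replicate mean overnight rise in green fluorescent reporter signal, 3 or more SD over negative controls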;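 also: score is relative to vehicle wells of the plate; 300 nL library stock went into each well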
Active calls of the source: *; & = joins results of further samples. This is a subset; the hit share may differ from the screen's.

SMILES	Bm FixLJ act
Cc1n[nH]c(C)c1CCCNC(=O)N(CCO)Cc1ccccc1Cl	-0.02
CN(CCNC(=O)C=Cc1nc2ccccc2s1)S(C)(=O)=O	0.5
Oc1ccc(NCc2ccccc2OCc2ccccc2F)cc1	2
Cc1ccc(F)c(NC(=O)CCC(=O)NCc2c(C)n[nH]c2C)c1	-0.44
COC1CN(C(=O)c2cc(C3CC3)[nH]n2)CC1Cc1cc(C)no1 (configuration not stated)	-1.4
Cc1ccc(C)c(OCC(=O)N2CCC(O)[C@@](CC3CC3)(C(=O)O)C2)c1C (some centres not stated)	0.44
Cc1ccc2nc(-c3ccc(C)c(NC(=O)CSc4ccc(Cl)cc4)c3)oc2c1	-2.4
O=C(c1ccccc1-c1nn[nH]n1)N1CCCN(C(=O)C2CCOCC2)CC1	-0.52
CCc1ccc(NC(=O)CN2C(C(=O)OC)=C(c3ccccc3)c3ccccc3S2(=O)=O)cc1	-0.92
CCc1cccc(NC(=O)CN(C)S(=O)(=O)c2ccc3c(c2)n(C)c(=O)c(=O)n3C)c1	-1.1
COc1cc2c(cc1OC)C(COc1ccc3c(C)cc(=O)oc3c1)N(C(=O)c1cccc(C)c1)CC2 (configuration not stated)	-1.8
CCOc1ccc(CN2C(=O)c3ccccc3Sc3ccc(C(=O)NCc4ccco4)cc32)cc1	0.39
CC(C)c1ccc(N2CC(C(=O)N3CCNC(=O)CC3)CC2=O)cc1 (configuration not stated)	-0.19
O=C1CCC(C(=O)N2CCC(CNC(=O)c3csc4ccccc34)CC2)N1 (configuration not stated)	0.59
Cc1ccc2c(c1)cc1c(=O)n(CC(=O)NC(C)CCc3ccccc3)nc(C)n12 (configuration not stated)	-1.4
O=C(Nc1c(C(=O)c2ccc(Cl)cc2)oc2ccccc12)c1cc(=O)c2ccccc2o1	1
CN(Cc1cscn1)C(=O)NC1CCN(S(=O)(=O)c2ccccc2)CC1	-0.8
CCOc1ccc(NC(=O)Cn2cc(C(=O)c3ccccc3)c3ccccc32)cc1	-1.1
COc1cccc(SCC(=O)N2CC(O)C(CS(=O)(=O)N(C)C)C2)c1 (configuration not stated)	-1.3
COc1ccc(N(CC(=O)N2CCN(c3ccc(F)cc3)CC2)S(=O)(=O)c2c(C)noc2C)cc1	-0.1
Cc1cc(C)cc(OCCOCCn2c(-c3ccc(Cl)cc3)nc3ccccc3c2=O)c1	0.34
CCOc1ccc(NC(=O)CSc2nnc3scc(-c4ccc(Cl)cc4)n23)cc1	-3.8
CCOC(=O)Cn1c(=O)c2c(nc(N3CCOCC3)n2Cc2ccccc2)n(C)c1=O	-1.2
O=C(Cn1nc2ccccc2n1)NCCc1noc(C2CCCO2)n1 (configuration not stated)	-0.97
Clc1cccc(N2CCN(c3nc4ccccc4c4nc(-c5ccccc5)nn34)CC2)c1	-1.2

For reference, some entries already given:
SMILES	Bm FixLJ act
CCOc1ccc(NC(=O)Cn2cc(C(=O)c3ccccc3)c3ccccc32)cc1	-1.1
COc1cccc(SCC(=O)N2CC(O)C(CS(=O)(=O)N(C)C)C2)c1 (configuration not stated)	-1.3
COc1ccc(N(CC(=O)N2CCN(c3ccc(F)cc3)CC2)S(=O)(=O)c2c(C)noc2C)cc1	-0.1
Cc1cc(C)cc(OCCOCCn2c(-c3ccc(Cl)cc3)nc3ccccc3c2=O)c1	0.34
CCOc1ccc(NC(=O)CSc2nnc3scc(-c4ccc(Cl)cc4)n23)cc1	-3.8

The results go on.
SMILES	Bm FixLJ act
COC1CN(C(=O)CCCc2nc(-c3ccncc3)no2)CC1O (configuration not stated)	0.38
Cc1c(C)c2c(c(C)c1O)CCC(C)(COc1ccc(CC3SC(=O)NC3=O)cc1)O2 (configuration not stated)	-1.9&-2.1
CCc1ccc(C(c2ccccc2)c2c[nH]c3ccc(C)cc23)s1 (configuration not stated)	0.67
COc1cc(C(=O)N2CCC(O)(c3ccc(C)cn3)CC2)nc(OC)n1	-2.7
Cc1cccc(NC(=O)C2CCN(S(=O)(=O)c3c(C)noc3/C=C/c3ccco3)CC2)c1C	-2.2
Cc1cc(C)n2nc(CC(=O)N(Cc3ccsc3)CC(C)C)nc2n1	-1.2
CN(C(=O)Cn1ncc2c1-c1ccccc1OC2)c1ccc(Br)cc1	-2.3
CC1=C(C(=O)OC2CCCCCC2)C(c2c(Cl)cccc2Cl)CC(=O)N1 (configuration not stated)	0.33
CCC(Cc1ccccc1)NC(=O)Cn1nc(C)n2c(cc3occc32)c1=O (configuration not stated)	-0.6
Nc1nc(NCCCCN2CCCC2)cc(C2CCOC2)n1 (configuration not stated)	0.95
CC1(C)CC(=O)c2cc(-c3nc(-c4ccccc4)cs3)c(=O)[nH]c2C1	-0.61
CCOc1cc(S(=O)(=O)NCCc2c(C)[nH]c3ccc(C)cc23)ccc1Br	-0.25
CCC12CN3CC(C)(CN(C1)C3c1ccccc1C)C2=O (configuration not stated)	-1
CCOc1ccccc1NC(=O)c1cccc2c1C(=O)N(C1CCCCC1)C2	0.14
CCOc1ccc(NC(=O)CSc2nc3c(oc4ccccc43)c(=O)n2-c2ccccc2C)cc1	-0.56
CN(CC1Cc2ccccc2O1)C(=O)C=Cc1cnc(N(C)C)nc1 (configuration not stated)	-0.13
O=C(NCCc1ccccc1)c1ccc2c(c1)N(Cc1ccc(F)cc1)C(=O)c1ccccc1S2(=O)=O	0.38
COc1ccc(-c2cc(-c3ccc(F)cc3)nc3c2COc2ccc(F)cc2-3)cc1	0.47
COc1ccccc1C(=O)N1CCC(c2noc(-c3ccc(S(=O)(=O)N4CCCC4)cc3)n2)CC1	-1.7
Cc1ccc(NC(=O)Nc2cc3c(cc2N2CCCCC2)n(C)c(=O)n3C)cc1Cl	-0.45
COc1ccc(OC)c(CCNCc2c(C(=O)O)c(C)n(Cc3ccc(F)cc3Cl)c2C)c1	-0.64
Cc1nnc(SCC(=O)N(Cc2cccnc2)Cc2ccsc2)s1	-0.34
COc1ccc2c(c1)[C@]13CCCC[C@@H]1[C@H](C2)N(C)CC3	-2.1&-0.05
CN(C)S(=O)(=O)Nc1cccc(NC(=O)NCCC2CCCOC2)c1 (configuration not stated)	0.01
COc1cc(C(=O)NCc2nc(-c3ccc(Cl)cc3)no2)cc(OC)c1OC	-0.75

Other entries follow.
SMILES	Bm FixLJ act
Cc1ccc(C)n1-c1nnc(N2CCC(C(=O)NCc3ccccc3Cl)CC2)s1	0.12
CCOc1cc(C#N)c(NC(=O)c2ccc(OC)c(S(=O)(=O)N3CCCCC3)c2)cc1OCC	-5.1
CC1CCC(C(=O)NC2COCC2Cc2ccnc3ccccc23)CC1 (configuration not stated)	-3.3
Cc1ccc(-n2nc(C(=O)N3CCN(c4ccccc4F)CC3)c3c4ccccc4n(C)c3c2=O)cc1	-0.09
CCCNS(=O)(=O)c1cc(-c2nn3c(C)nnc3c3ccccc23)ccc1C	-2.8
Cc1ccc2cccc(NC(=O)c3cccc4ccccc34)c2n1	-0.16
CS(=O)(=O)N1CCCCC1CCNC(=O)c1n[nH]c(=O)c2ccccc12 (configuration not stated)	1.2
COc1ccc(C2CC(=O)Nc3c2c(-c2ccccc2)nn3C)cn1 (configuration not stated)	-1.7
CCC1CCc2nc3sc(C(=O)Nc4ccc(C)cc4)c(N)c3cc2C1 (configuration not stated)	-0.23
COc1ccccc1N1CCN(C(=O)CN2C(=O)COc3ccc(S(=O)(=O)N4CCCC4)cc32)CC1	0.35
CC(=O)Nc1ccc(S(=O)(=O)N2CCC(c3nnc(-c4ccc(C)cc4)o3)CC2)cc1	-2.3
CCN(CC)S(=O)(=O)c1ccc2c(c1)N(CC(=O)Nc1ccc(F)cc1)C(=O)CO2	-0.89
Cc1cccc(C(=O)NCCc2nc3ccccc3n2CCC(C)C)c1	1.4
COc1ccc(-n2c(=O)c3ccc(C(=O)NCc4ccc(C)cc4)cc3n(CC(=O)Nc3ccc(C)cc3)c2=O)cc1	-1.1
Cc1ccc(NC(=O)C(CC(C)C)NS(=O)(=O)c2ccc3c(c2)oc(=O)n3C)c(C)c1 (configuration not stated)	-0.4
COc1ccc(OCC(=O)N2CCN(C(=O)c3cccc(OC)c3)CC2)cc1	-0.28
COc1ccc(-c2nnc3c4ccccc4c(-c4ccccc4)nn23)cc1	-1.4
Cc1nc2ncnn2c(C)c1CCC(=O)N1CCN(c2ccc(F)cc2)CC1	-0.43
Cc1cc(C)cc(OCCCn2c(-c3ccc(Cl)cc3)nc3ccccc3c2=O)c1	-0.49
CN(c1ccc(C(=O)NCc2noc(-c3cccs3)n2)cc1)S(C)(=O)=O	-0.06
CCOC(=O)c1cnc2c(ccc3ccccc32)c1Nc1ccc(OC)c(OC)c1	-1.1
COc1ccc(C(=O)COC(=O)c2cc(-c3ccccc3)nc3c(C)cccc23)cc1	-0.59
CCOc1ccc(CCNC(=O)c2cc(Nc3ccc(C)cc3C)nc3ccccc23)cc1OCC	-0.1
COc1ccc(Nc2ncc(C(=O)Nc3cccc(OC)c3)c3ccccc23)cc1	1.8
Cc1ccc(-n2c(=O)c3c4c(sc3n(Cc3cc(=O)n5cc(Cl)ccc5n3)c2=O)CCC4)cc1C	0.02

Three entries from above, as comma-separated lines.
SMILES,Bm FixLJ act
CN(c1ccc(C(=O)NCc2noc(-c3cccs3)n2)cc1)S(C)(=O)=O,-0.06
CC(=O)Nc1ccc(S(=O)(=O)N2CCC(c3nnc(-c4ccc(C)cc4)o3)CC2)cc1,-2.3
COc1ccccc1N1CCN(C(=O)CN2C(=O)COc3ccc(S(=O)(=O)N4CCCC4)cc32)CC1,0.35

5 records picked at random from those above:
SMILES	Bm FixLJ act
Cc1cc(C)cc(OCCCn2c(-c3ccc(Cl)cc3)nc3ccccc3c2=O)c1	-0.49
COc1ccc(-c2nnc3c4ccccc4c(-c4ccccc4)nn23)cc1	-1.4
COc1ccc(C(=O)COC(=O)c2cc(-c3ccccc3)nc3c(C)cccc23)cc1	-0.59
COc1ccccc1N1CCN(C(=O)CN2C(=O)COc3ccc(S(=O)(=O)N4CCCC4)cc32)CC1	0.35
Cc1ccc(-n2c(=O)c3c4c(sc3n(Cc3cc(=O)n5cc(Cl)ccc5n3)c2=O)CCC4)cc1C	0.02

Next part:
SMILES	Bm FixLJ act
COc1ccc2c(c1)cc1c(=O)n(CC(=O)NC3CC3)nc(C)n12	-0.52
Cc1ccccc1OCC(O)C(=O)N1CCC(O)(Cc2ccccc2)CC1 (configuration not stated)	-0.29
Cn1c(-c2ccccc2Cl)nc2cc(C(=O)N(CCO)CCO)cnc21	-0.35
Cc1cc(C(F)F)n2nc(C(=O)Nc3ccc(F)c(Cl)c3)nc2n1	-2.1
CCCCn1ccnc1C1CCCN(C(=O)c2ncc(F)cc2F)C1 (configuration not stated)	-0.46
COc1ccccc1OCC(=O)N(Cc1ccco1)Cc1ccccc1F	-0.21
CN1CCCN(C(=O)C2C[C@@](C)(C(=O)O)N(C)C2c2ccccc2Cl)CC1 (some centres not stated)	0.91
O=S(=O)(c1ccc(Cl)cc1)c1nc(-c2ccccc2F)oc1NCc1ccccc1	0.05
CNC(=O)c1ccc(NC(=O)c2nsc3ccccc23)cc1	-2.7
CC(C)(C)C1CCc2c(sc(NC(=O)c3noc4c3CCCC4)c2C#N)C1 (configuration not stated)	-2.9
COc1ccc(-c2nc3ccccc3n2Cc2ccccc2)cc1	-3.4
CCC1=Nc2cc(C(=O)NCCN(CC)CC)ccc2Sc2ccccc21	-0.73
CCc1ccc(-n2nc3cc(C)c(NC(=O)c4ccccc4C)cc3n2)cc1	-2.6
CN(C)CC[C@H](c1ccc(Cl)cc1)c1ccccn1	-1.1
CCc1ccc(OCC(=O)Nc2ncn[nH]2)c(Br)c1	-1.6
COc1cccc2c1C1(CCN(C(=O)CCc3cc(Cl)no3)CC1)OCC2	-1.2
Cc1ccc(N2C(=O)c3[nH]nc(-c4ccc(Cl)cc4)c3C2c2ccc(F)cc2)cc1 (configuration not stated)	1
CN(Cc1cc2cc(F)ccc2[nH]1)C(=O)CC1NC(=O)c2ccccc21 (configuration not stated)	-0.63
CCOC(=O)c1c(-c2ccc(C)cc2)csc1NC(=O)c1cc(=O)c2cc(C)ccc2o1	-1.8
COc1cccc(NC(=O)/C(C#N)=C\c2cn(Cc3ccc(C)cc3)c3ccccc23)c1	0.29
O=C(NCCOc1cccc2cccnc12)c1n[nH]c2c1CCC2	-1.8
CC1CCC2(CC1)N=C(c1ccccc1)C(=O)N2CC(=O)Nc1ccc(F)c(Cl)c1 (configuration not stated)	-1.8
O=C(C1CCCCCC1)N1CCC2(CN(Cc3nc(C(F)(F)F)no3)CCO2)C1 (configuration not stated)	-0.64
COc1cccc(CCNC(=O)c2cnc3sc(N4CCCCCC4)nn3c2=O)c1	-1.2
COc1ccc(C(=O)Nc2ccccc2-c2nc3ccccc3s2)cc1OC	1.2

Following part:
SMILES	Bm FixLJ act
Cc1cc(NC(=O)c2ccco2)cc(-c2nc3ccccc3o2)c1O	-1.6
Cc1nc2nc(NC(=O)c3ccc(F)cc3)[nH]n2c(=O)c1Cc1ccccc1	-0.06
CCN1CC2(CCC1=O)CCN(CC(=O)NCc1ccccc1)CC2	0.83
CCN(CC)CCNC(=O)c1cc2c(=O)n(C)c3cc(Cl)ccc3c2s1	-1.6
CCC(=O)N1CCCC(C(=O)NCc2nc(CSC)no2)C1 (configuration not stated)	0.4
CC1(c2ccccc2)CC(C)(C)N(C(=O)c2cccc(Cl)c2)c2ccccc21 (configuration not stated)	1.8
CCOc1ccc(CCNC(=O)CN2CCN(Cc3ccc(F)cc3Cl)C2=O)cc1OCC	-1.4
Cc1ccc(C(=O)N2CCn3c4c(c5cc(C)ccc53)CCCC42)cc1 (configuration not stated)	-0.11
Cc1cc(C)cc(NS(=O)(=O)c2c(C)nc3scc(C)n3c2=O)c1	-0.25
CCc1ccc(CN(C)C(=O)[C@@]2(C)CCC(C(=O)N(C)C)C2(C)C)nc1 (some centres not stated)	0.71
CCOC(=O)CCc1c(C)nc2c(c(C)nn2-c2ccc(C)cc2)c1C	-0.52
CSc1ccc(CNCc2c(C(=O)O)c(C)n(Cc3ccc(F)cc3Cl)c2C)cc1	-2.5
CCc1nn(-c2ccccc2)c2nc(-c3ccc(O)cc3)c3cc(OC)c(OC)cc3c12	-0.79
